High-throughput results: PubChem, National Center for Advancing Translational Sciences (NCATS)
gsp antagonist = antagonizes gsp, the McCune-Albright syndrome mutation; gsp-mutant cells, cAMP HTRF, 30 min; control for the full effect not named in the record; Potency, µM (titrated, usually from 76.9 µM), inactives show at the highest dose activity change, negative = inhibition, usual class: inhibitors; 340,000 tested, 0.4% active; AID 624288; active = falling curve of any shape with a large fitted effect; inconclusive = falling curve, mostly with a smaller effect; inactive = flat or rising curve; cell line not stated here;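 also: intracellular cAMP measured with PDE inhibitor Ro 20-1724 present during compound exposure; potency is read from the fitted curve at half-maximal effect; % is scaled to controls: 0 for no effect and ±100 for the full control effect; nearly all actives have a fitted effect of over 65% in size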
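Measurement of cellular cAMP by homogeneous time-resolved fluorescence following a 30 min compound exposure at 37C. The PDE inhibitor […] was present throughout; the assay buffer was DPBS with 0.05% BSA and 0.005% Tween 20.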
TRPML1 ag = human mucolipin-1 channel agonism; 410,000 tested, 0.12% active; AID 624414; TRPML1-expressing cells, Ca2+ dye fluorescence, FDSS; host cell line not named in the record; reference of the full effect not given here; activation, % (test concentration not listed); Q9GZU1; in the data active = activation above about 50%; inconclusive = about 30% to 50%; inactive = below about 30%; also: 0% is about no effect; the text of the record puts the active cut at 80%
Target sequence (Q9GZU1 whole entry, looked up): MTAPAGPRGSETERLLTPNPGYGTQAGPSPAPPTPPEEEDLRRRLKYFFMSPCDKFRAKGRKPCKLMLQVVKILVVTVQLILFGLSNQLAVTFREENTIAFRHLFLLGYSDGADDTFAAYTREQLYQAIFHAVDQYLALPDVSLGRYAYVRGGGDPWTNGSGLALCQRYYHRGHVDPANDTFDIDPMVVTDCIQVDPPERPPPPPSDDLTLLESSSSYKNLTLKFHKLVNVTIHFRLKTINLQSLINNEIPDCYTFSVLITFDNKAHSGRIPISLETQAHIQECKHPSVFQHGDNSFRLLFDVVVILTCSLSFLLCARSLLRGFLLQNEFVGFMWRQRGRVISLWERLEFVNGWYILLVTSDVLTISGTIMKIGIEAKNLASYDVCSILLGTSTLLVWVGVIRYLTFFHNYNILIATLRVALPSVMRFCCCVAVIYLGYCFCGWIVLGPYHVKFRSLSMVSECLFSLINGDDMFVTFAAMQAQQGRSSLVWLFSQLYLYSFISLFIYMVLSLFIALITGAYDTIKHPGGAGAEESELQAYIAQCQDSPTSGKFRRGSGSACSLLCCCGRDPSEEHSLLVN
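Agonist activity was taken from a 110 s kinetic Ca2+ dye read on the FDSS after pinning compounds onto TRPML1-DL cells. The cells were seeded at 1,500/well with Tet inducer, incubated about 16 h, then dye-loaded at room temperature.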
gsp ag = gsp mutant agonism; gsp mutant cells, cAMP HTRF, 30 min; control for the full effect not named in the record; Potency, µM (series often up to 76.9 µM), for inactives: top-dose activation (cAMP increase), hits mostly activators; 340,000 tested, 0.13% active; AID 624287; active = well fitted activation curve with a large enough effect; inconclusive = small, poorly fitted or top-dose-only effect, or another doubt; inactive = no such curve, though single readings can be large or run the other way; cell line not stated here;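 also: phosphodiesterase inhibitor Ro 20-1724 added with compounds to block cAMP breakdown; potency is read from the fitted curve at half-maximal effect; nearly all actives have a fitted effect of over 60% in size; about a fifth of the inactives were tested at one dose only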
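Cells in DMEM/10% FBS with G418 were pretreated with compounds in DMSO plus […] (300 uM stock) for 30 min at 37C. cAMP was measured by HTRF (cAMP-d2 plus anti-cAMP antibody-K) after 30 min at room temperature.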
ClpP mod = qHTS Assay for Activators of ClpP; 340,000 tested, 1.9% active; purified B. subtilis ClpP, FRET peptide cleavage, 20 min; ATP-dependent Clp protease proteolytic subunit (Bacillus subtilis (strain 168)), P80244; Potency, µM (highest dose often 57.5 µM), for the others: at the top dose activity change, negative = active; active = well fitted falling curve with a large enough effect; inconclusive = small, poorly fitted or top-dose-only effect; inactive = no such curve, though single readings can be large or run the other way; also: potency is read from the fitted curve at half-maximal effect; the source files actives as falling curves though it sought activators and does not explain the sign; nearly all actives have a fitted effect of over 65% in size; many hits overshoot -100%
Target sequence (P80244 whole entry, looked up): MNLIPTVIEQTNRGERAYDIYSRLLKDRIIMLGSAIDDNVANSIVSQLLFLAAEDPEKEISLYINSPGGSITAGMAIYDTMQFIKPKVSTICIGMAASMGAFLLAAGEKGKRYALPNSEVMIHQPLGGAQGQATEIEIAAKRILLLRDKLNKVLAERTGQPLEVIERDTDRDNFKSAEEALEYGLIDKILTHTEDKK
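ClpP 10 microg/mL final, pH 8 Tris/KCl buffer with BSA, glycerol, Tween-20; compound pinned in; FRET-FV substrate; RT 20 min; Ex320/Em430; ΔFRET vs ADEP 5.8 microM, DMSO, no enzyme.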
Menin MLL FP FL = inhibitors of human menin-MLL interaction, wild-type MLL peptide; Fluorescence polarization, fluorescein-MLL peptide displacement from menin; FP activity change, % at 61.4 µM; 290,000 tested, under 10 active; AID 1766; inconclusive = falling polarisation curve, or a change in total fluorescence; inactive = total fluorescence flat and polarisation flat or rising; no compound was filed as active; the % refers to the polarisation; negative = inhibition;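 also: % of control where 0% means no effect; inhibitors lower the polarisation; unlabelled MLL peptide was the positive control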
TRPML1 blocker = human mucolipin-1 channel inhibition. TRPML1-inducible cells, Ca2+ dye fluorescence, FDSS; hits give low values; inhibition of EC80 agonist-evoked calcium signal. activity change, negative = inhibition, % (no concentration beside the values). 390,000 tested, 0.02% active. AID 624415; in the data active means activity change below about -50%; inconclusive means about -30% to -50%; inactive means above about -30%;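 also: stimulus is agonist 54-4 at its EC80 concentration; % is scaled to controls: 0 for no effect and ±100 for the full control effect; compound concentration not given in the record; the text of the record puts the active cut at -80%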
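Tet-induced TRPML1-DL cells loaded with Ca8 no-wash calcium dye were read kinetically on FDSS. Compound addition was followed by EC80 agonist 54-4 (4 uM final); inhibition was read over 110 s.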
* marks the source's active call; other numbers are inactive results; ? = inconclusive; . = no result given; & = joins results of further samples; [ ] = remark or other dose.

SMILES	gsp antagonist	TRPML1 ag	gsp ag	ClpP mod	Menin MLL FP FL	TRPML1 blocker
CCN(CC(=O)Nc1ccc(Br)cc1)CC(=O)Nc1cc(C)on1	5%	-0.6	-21%	-19%	.	0
CCOC(=O)c1cnc2c(-c3ccccc3OC)c(C)nn2c1C	-7%	0.7	19%	0.5%	2.8	4
Cc1cc(CN(C)C(=O)c2ccc3nc(Cc4ccccc4F)oc3c2)n[nH]1	9%	0.3	-28%	12%	.	6
O=C(Nc1ccccc1)c1ccc(NCC2CCCO2)c(S(=O)(=O)N2CCOCC2)c1 (centres undefined)	6%	2.3	-19%	-6.4%	-1.3	-16
COc1ccc2[nH]c(=O)c3c(c2c1)OC(C)(C)C=C3	2%	0.8	-15%	-19%	2.7&-5.0&-4.0	-12
COc1ccc2nc(N3CCN(C(=O)CS(=O)(=O)c4ccc(C)cc4)CC3)sc2c1	.	3.8	.	-0.6%	.	-7
Cn1c(=O)c2c(nc(SCC(=O)Nc3ccc(F)cc3)n2Cc2ccccc2)n(C)c1=O	.	-1.0	.	-0.4%	.	9
CC(=O)N(C(C)=O)N1C(=O)C2C3c4ccccc4C(c4ccccc43)C2C1=O (centres undefined)	-2%	1.4	0%	0.2%	1.3	-6
CSc1ccc(NC(=O)Nc2cc(C)ccn2)cc1	4%	-1.1	8%[15.4 µM]	?	-0.5	-17
COC(=O)c1c(NC(=O)COc2ccc(OC)cc2)sc2c1CCC(C)C2 (centres undefined)	.	0.2	.	0.1%	.	19
CC(C)C1Cc2c(C#N)c(N)n(C)c(=S)c2CO1 (centres undefined)	-11%	0.0	-9%[15.4 µM]	0.4%	5.7	-8
COc1ccc(C)cc1NC(=O)CCNS(=O)(=O)c1cccc2nonc12	-4%	-0.2&-1.1	-12%[15.4 µM]	-3.1%	1.9	-2&23
CCOP(=O)(OCC)C(Nc1ccc(C(=O)O)cc1)c1ccccc1 (centres undefined)	-5%	.	13%	-5.0%	2.8	.
COc1ccc(/C=C2\SC(=S)N(CCC(=O)N(CCO)c3ccccc3)C2=O)cc1OC	-9%	0.8	7%	-3.1%	1.5	-4
CC(C)(C)c1cnnn1-c1ccc(C(=O)CCl)cc1	10%	0.1	-31%[inhibitor]	-3.1%	0.0	23
O=C(CSc1ccc2c(c1)OCCO2)N1CCN(c2ccccc2O)CC1	?	-0.9	-86%[inhibitor]	1.7%	.	4
O=C(CSCc1ccc(Br)cc1)N1CCCC1	12%	3.8	-21%	-0.1%	0.4	-8
CN1CCN(CCCNC(=O)c2ccc3c(Cl)c4c(nc3c2)CCCC4)CC1	2%	0.0	5%	-5.8%	.	26
Cc1ccc(C(=O)N/N=C/c2ccc(N3CCOCC3)cc2)c(C)c1	2%	-0.6	7%[15.4 µM]	.	-2.1	-7
O=S(=O)(c1ccc(Cl)cc1)c1nnn2c1nc(NCc1ccccc1)c1sccc12	.	1.0	.	-4.4%	.	6
O=C(/C=C/c1ccccc1[N+](=O)[O-])NCc1ccncc1	-15%	-0.2	-18%	0.4%	0.2	-1
O=C(C[C@H]1C/C=C\C[C@H](Cc2ccc(F)cc2)C(=O)OC[C@@H]2CCCN2C1=O)N[C@H](CO)Cc1ccccc1	-5%	-0.3	-32%	-0.7%	.	-10
CCOC(=O)C1CCCN(C(=O)C2CCN(S(=O)(=O)c3ccc4ccccc4c3)CC2)C1 (centres undefined)	-18%	0.8	2%	-2.0%	.	3
Cc1nnc(-n2ncc(C#N)c2N)c2nn(-c3cccc(Cl)c3)c(C)c12	19%	-0.3	?	-2.5%	0.2	-18
CCN(CC(=O)Nc1ccccc1C(F)(F)F)C(=O)c1ccccc1SCC(=O)N1CCCC1	3%	-1.2	5%	1.3%	.	-13
COc1ccc(N(Cc2ccccc2)S(=O)(=O)c2cccc(C(=O)Nc3ccccn3)c2)cc1	-6%	2.5	-10%	-8.7%	.	50
CC(=O)c1cc2c(cc1NC(=O)C1CC1)OCO2	2%	-0.2	15%	-12%	-3.4	-9
O=C(CNC(=O)c1nc[nH]c1C(=O)NCC(=O)OCc1ccccc1)OCc1ccccc1	1%	0.5	-17%	-0.2%	2.7	-9
CC1CCCCN1Cc1c(O)ccc2c(=O)c(-c3ccc(Cl)cc3Cl)coc12 (centres undefined)	-4%	0.2	7%	4.0%	4.7	39
COc1ccc(CNC(=O)c2cccnc2Sc2ccc(Cl)cc2)cc1	11%	1.7	-30%	0.4%	3.5	-7
Cc1ccc(-c2cc(C(=O)n3cnc4ccccc43)c3ccccc3n2)cc1C	-18%	1.1	-5%	?	1.4	13
O=C(O)CC(CP(=O)(c1ccccc1)c1ccccc1)C(=O)O (centres undefined)	0%	0.2	-2%	-0.5%	1.9	11
N#CC(c1ccc(O)cc1)N1CCN(C(C#N)c2ccc(O)cc2)CC1 (centres undefined)	-2%	0.2	22%	2.3%	.	11
O=C(NC1CCCC1)C(c1ccc(F)cc1)N(C(=O)c1csnn1)C1CCCC1 (centres undefined)	.	2.9	0%[15.4 µM]	.	-0.5	2
Fc1ccc(CN2CCCCCCC2)cc1F	0%	-0.3	?	3.7%	5.4	-13
Cc1cccc(N2C(=O)c3cccc4cccc(c34)C2=O)c1	6%	.	-50%	-6.6%	0.5	.
CCOc1ccccc1C1N(c2ccc(OC)cc2)C(=O)C2CCCN21 (centres undefined)	3%	-0.3	-7%	2.4%	-2.0	-12
COc1ccc(C(=O)NC(C)(C)C)cc1S(=O)(=O)N1CCCC1	11%	-0.7	-46%[inhibitor]	-1.6%	4.6	-9
CCN(CC)C(=O)[C@H]1CC(CC(=O)NC/C=C(\C)CCC=C(C)C)C(=O)N2CCc3c([nH]c4ccc(OC)cc34)[C@]12C (some centres undefined)	-5%	0.1	.	3.5%	.	-4
CCOc1ccccc1Nc1nc(-c2sc(NC(=O)c3ccco3)nc2C)cs1	-9%	0.5	.	-13%	4.5	4
C=CC[C@@H](CC(=O)N[C@H](CO)Cc1ccccc1)C(=O)NCCOC(=O)[C@@H](CC=C)Cc1ccc(F)cc1	-6%	0.5	-2%	-4.1%	.	1
O=C(NNC(=O)c1cccc(Br)c1)C(=O)N1CCCCC1	0%	0.2	?	-0.6%	-2.1	-3
CSc1ncc(Cl)c(C(=O)Nc2ccc(S(=O)(=O)N3CCOCC3)cc2)n1	12%	-0.4	?	0.5%	-2.8	-12
Cc1c(C)n2c(SCC(=O)Nc3ccc4c(c3)OCCO4)nnc2[nH]c1=O	3%	3.1	-9%[15.4 µM]	.	.	7
COc1ccc(CC(=O)N2CC(=O)Nc3ccc(Br)cc3C2c2ccc(F)cc2)cc1OC (centres undefined)	.	-0.5	.	0.1%	.	6
Cc1ccc(NC(=O)CCN2C(=O)C3C4CCC(C4)C3C2=O)cc1[N+](=O)[O-] (centres undefined)	-9%	0.2	-63%[inhibitor]	?	-9.6	-16
CN(C)/C=C(\C=O)c1onc(-c2ccccc2Cl)c1C#N	-4%	-0.7	2%[15.4 µM]	0.9%	3.6	10
COc1cccc(N(C(=O)C2CSC(=O)C2)C(C(=O)NC(C)(C)C)c2ccncc2)c1 (centres undefined)	2%	0.7	-52%[inhibitor]	-4.2%	-1.4	-5
CCOc1ccc(S(=O)(=O)N2CCC(C(=O)NC3CC3)CC2)cc1C	12%	0.4	-7%[15.4 µM]	.	1.5	1
C=CC[C@@H](CC(=O)N[C@H](CO)Cc1ccccc1)C(=O)NC[C@H](OC(=O)[C@@H](CC=C)Cc1ccc(F)cc1)c1ccccc1	-15%	-0.5	8%	-0.1%	.	6
Cc1cccc(Cl)c1OCCCn1ccnc1	3%	1.5	-24%	-2.9%	0.5	-6
CNC(=S)N/N=C/c1cccc(OCc2ccccc2F)c1	-7%	0.5	-2%[15.4 µM]	0.3%	3.4	4
Cc1ccccc1Cn1c(=O)n(Cc2ccc3c(c2)OCO3)c(=O)c2oc3ccccc3c21	.	0.5	.	-2.7%	.	-13
CC(=O)NC(CC(=O)OCC(=O)N1CCN(S(=O)(=O)c2ccc(Cl)cc2)CC1)c1ccccc1 (centres undefined)	8%	-0.8	3%	-1.2%	.	8
Cc1c(CN2CCCCC2)c(O)n(CCO)c(=O)c1C#N	0%	0.0	-1%[15.4 µM]	.	?	0
C=CCNc1nc(C(=O)OCC(=O)Nc2ccccc2C(F)(F)F)cs1	7%	0.0	3%	-1.0%	.	5
Cn1cnnc1SCC(=O)Nc1cc(C(=O)O)cc(C(=O)O)c1	.	-0.6	.	-2.8%	.	-2
Cc1ccc(NC(=O)COc2ccc3c(c2)CCC3)nc1	-4%	2.0	26%[15.4 µM]	.	.	-2
C=CCn1c(=O)c2ccccc2n2c(SCC(N)=O)nnc12	-5%	-0.5	28%	-7.0%	-1.2	32
Cc1ccc(C)c(NC(=O)C(=O)NCCc2csc(-c3ccc(C(F)(F)F)cc3)n2)c1	.	2.8	.	-5.3%	.	33
Carrying on.
SMILES	gsp antagonist	TRPML1 ag	gsp ag	ClpP mod	Menin MLL FP FL	TRPML1 blocker
CN1CCN(/C(=N\S(=O)(=O)c2ccc(F)cc2)c2ccccc2)CC1	1%	0.4	-19%	-22%	1.4	32
O=C(CCCN1C(=O)C(c2ccccc2)Oc2cccnc21)Nc1ccc(Br)cc1F (centres undefined)	.	1.8	.	-9.6%	.	17
CN(CC(=O)Nc1ccc(OC(F)(F)F)cc1)C(=O)c1ccc(N2CCCC2=O)cc1	-2%	-0.3	20%	0.8%	.	11
COc1ccc(-c2cc(C(=O)Nc3ccccc3F)on2)cc1	6%	-0.4	2%	?	-1.6	9
O=C(/C=C\c1ccc2c(c1)OCO2)NC1CC(=O)N(c2ccc(Cl)cc2)C1 (centres undefined)	.	-0.3	.	?	.	-14
O=C(C1CCC(CNc2nc(=S)[nH]c3ccccc23)CC1)N1CCN(c2ccccn2)CC1 (centres undefined)	-14%	1.4	0%	-23%	6.1	-8
COc1ccc(-c2nnc(NC(=O)CSc3ccc(C)cc3)s2)cc1OC	2%	0.8	1%	-15%	-0.4	5
Cc1onc(-c2ccccc2)c1C(=O)Nc1cccc(S(=O)(=O)N2CCCCC2)c1	-11%	2.2	-2%[15.4 µM]	22%	.	14

Grouped by structure: those above with a furan ring, fused or not.
SMILES	gsp antagonist	TRPML1 ag	gsp ag	ClpP mod	Menin MLL FP FL	TRPML1 blocker
CCOc1ccccc1Nc1nc(-c2sc(NC(=O)c3ccco3)nc2C)cs1	-9%	0.5	.	-13%	4.5	4
Cc1ccccc1Cn1c(=O)n(Cc2ccc3c(c2)OCO3)c(=O)c2oc3ccccc3c21	.	0.5	.	-2.7%	.	-13
